Mtb bLac sens: beta-lactam sensitization of Mtb H37Rv; AID 434955; M. tuberculosis H37Rv growth with meropenem, percent inhibition; hits of this screen are not shown here; inhibition, % at 25 µM; 330,000 tested, 0.27% active;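 active = about 74% or more and at least 40 points above the plate without the antibiotic, then above 30% in a dose series; inconclusive = first-round hits that could not be retested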;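 also: growth measured after seven days incubation then overnight dye step; 0% = bacteria only wells and 100% = bacteria with antibiotic; twin plates without the antibiotic show which effects depend on it; some results filed as inactive read as strong as hits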
Arbovirus inh: arbovirus infection inhibition; arbovirus infection cell-based antiviral screen; 200,000 tested, 0.37% active; inhibition, % at 10 µM;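 active = inhibition from about 30%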;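 also: bluetongue infection of BSR cells; cell survival read as ATP light after 72 h; 0% = infected wells without compound and 100% = uninfected wells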
RecA splice inh: Mtb RecA intein splicing inhibition; P9WHJ3; cell-free RecA intein splicing, fluorescence; inhibition, %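 (about 9 µM by stock and volumes)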; 290,000 tested, 0.75% active; in the data active = inhibition above about 30%; inconclusive = no clear call, values can overlap the other calls;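 also: 0% = vehicle wells and 100% = reference inhibitor control wells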
Target sequence (P9WHJ3 whole entry, looked up, canonical isoform): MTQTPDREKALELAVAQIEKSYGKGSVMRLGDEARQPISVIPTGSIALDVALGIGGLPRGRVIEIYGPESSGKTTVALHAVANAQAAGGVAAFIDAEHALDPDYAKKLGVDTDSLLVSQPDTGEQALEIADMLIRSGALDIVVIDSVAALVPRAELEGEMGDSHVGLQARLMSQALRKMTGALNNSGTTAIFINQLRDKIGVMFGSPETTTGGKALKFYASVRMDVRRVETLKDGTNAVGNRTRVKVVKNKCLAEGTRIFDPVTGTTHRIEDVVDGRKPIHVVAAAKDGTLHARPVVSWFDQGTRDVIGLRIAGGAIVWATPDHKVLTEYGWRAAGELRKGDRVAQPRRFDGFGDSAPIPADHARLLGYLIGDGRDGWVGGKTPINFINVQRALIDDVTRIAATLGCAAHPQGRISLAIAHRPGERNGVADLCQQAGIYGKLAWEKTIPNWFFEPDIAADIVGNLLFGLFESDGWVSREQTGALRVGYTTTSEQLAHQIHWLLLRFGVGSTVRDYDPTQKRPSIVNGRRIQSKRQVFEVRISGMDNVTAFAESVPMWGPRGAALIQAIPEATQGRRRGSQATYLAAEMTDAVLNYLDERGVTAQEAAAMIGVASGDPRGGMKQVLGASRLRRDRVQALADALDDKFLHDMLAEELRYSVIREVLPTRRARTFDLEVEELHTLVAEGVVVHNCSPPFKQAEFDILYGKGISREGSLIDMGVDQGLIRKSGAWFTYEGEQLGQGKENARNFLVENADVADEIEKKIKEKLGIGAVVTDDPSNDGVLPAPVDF
YopH PTP inh: inhibitors of Yersinia enterocolitica YopH tyrosine phosphatase; fluorescence Ex485/Em525; inhibition, %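 (about 10 µM by stock and volumes)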; 140,000 tested, 0.16% active;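 active = inhibition of 50% or more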;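 also: controls were vehicle for no effect and minimum signal wells for full effect; inactives centre near -20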
Mtb growth: M. tuberculosis H37Rv growth inhibitors, H37Rv strain (AID 1626); M. tuberculosis H37Rv growth inhibition; higher % means a stronger effect; inhibition, % at 10 µM, or IC50 in µM where a hit was titrated; 220,000 tested, 0.95% active;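 active = confirmed in a dose series; inconclusive = inhibition above 80% but not taken into the dose series; inactive = below 80% or under 30% at every dose of the series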;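 also: bacteria incubated seven days before Alamar blue readout; 0% = bacteria only wells and 100% = bacteria with antibiotic wells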
Arbovirus inh repeat: further read-out of Arbovirus inh, marked with its call; inhibition, %; measured here: 10K subset replicate screen; many hits read low in the repeat;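 first of two repeat runs on a subset; 0% = infected and 100% = uninfected wells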
* marks the source's active call; other numbers are inactive results; u = inconclusive; x = no result given.

SMILES	Mtb bLac sens	Arbovirus inh	RecA splice inh	YopH PTP inh	Mtb growth	others
CCOc1ccc(S(=O)(=O)N2CCN(C(=O)CCC(=O)N3CCOCC3)CC2)cc1	-6	x	3.7	x	x
O=C(Nn1cnnc1)C(Sc1ccccc1)c1ccccc1 (stereo not given)	14	11	1.1	-34	-1%
CN(C1CCS(=O)(=O)C1)S(=O)(=O)c1ccc(C2CCCCC2)cc1 (stereo not given)	-7	6	-0.7	-23	-8%
CN(C)/C=C/C(=O)c1ccc(F)cc1	7	0	-0.6	-32	-2%
COc1ccccc1C(=O)C1CCCN(C(=O)CCC(=O)c2ccccc2)C1 (stereo not given)	-6	5	-0.6	x	5%
Cc1nc(C)c(-c2csc(Nc3ncccc3C)n2)s1	50	x	0.3	x	x
CCc1ccc(-c2nc(SCC(=O)NC3CCS(=O)(=O)C3)n[nH]2)cc1 (stereo not given)	-1	x	1.6	x	x
CC(Oc1ccc(-c2nccc(-c3ccccn3)n2)cc1)C(=O)NN (stereo not given)	-9	-1	-4.0	-16	x
CCOc1ccc(N(CC(=O)NCc2ccccc2OC)S(C)(=O)=O)cc1	5	1	-1.7	-26	2%
CS(=O)(=O)N(CC(=O)NCCSc1ccccc1)c1ccc2c(c1)OCO2	-2	-5	-0.7	-38	5%
O=C(NC12CC3CC(CC(C3)C1)C2)N(Cc1ccccc1)Cc1ccncc1	1	-3	-2.1	x	6%
CCOC(=O)/C(C#N)=C/c1cn(CCC(=O)O)nc1-c1ccc(Cl)cc1	-4	-3	1.5	-40	-5%
O=C(C1CCC(CNc2c(N3CCCCC3)c(=O)c2=O)CC1)N1CCc2ccccc2C1 (stereo not given)	x	-2	-2.3	15	u	Arbovirus inh repeat=-3
O=C(NCCc1ccc(F)cc1)Nc1ccc2c(c1)OCO2	4	-14	-1.3	x	4%
COc1ccc(CNC(=O)COc2cc(O)c3c(c2)OC(C)(C)CC3=O)cc1	-3	x	-0.4	x	x
CN1C(=O)C(C)(C)c2cc(S(=O)(=O)N3CCC(C(=O)NCc4ccc(F)cc4)CC3)ccc21	3	x	-1.0	x	x
Cc1cc2c(cc1C)CSC(c1ccc3ccccc3c1O)SC2	-3	13	5.2	-18	-8%
CCOC(=O)C1CCN(S(=O)(=O)c2ccc(OC)c(Cl)c2)CC1	-2	3	-2.6	x	-4%
Cc1ccc(S(=O)(=O)Oc2ccccc2/C=N/NC(=O)c2c(Cl)cnn2C)cc1	-1	3	1.5	-23	1%
O=C(CN1C(=O)C2CC=CCC2C1=O)Nc1nccs1 (stereo not given)	-2	3	-5.1	x	1%

Sorted by count of non-hydrogen atoms (rising): 3 of the compounds above.
SMILES	Mtb bLac sens	Arbovirus inh	RecA splice inh	YopH PTP inh	Mtb growth	others
O=C(NCCc1ccc(F)cc1)Nc1ccc2c(c1)OCO2	4	-14	-1.3	x	4%
CCOC(=O)C1CCN(S(=O)(=O)c2ccc(OC)c(Cl)c2)CC1	-2	3	-2.6	x	-4%
CS(=O)(=O)N(CC(=O)NCCSc1ccccc1)c1ccc2c(c1)OCO2	-2	-5	-0.7	-38	5%

Remaining list, next part.
SMILES	Mtb bLac sens	Arbovirus inh	RecA splice inh	YopH PTP inh	Mtb growth	others
Cc1cc(=O)n2nc(N3CCCC3C(=O)NCc3ccccn3)sc2n1 (stereo not given)	-8	-1	-0.5	-36	-3%
O=C(Nc1ccc(N2CCOCC2)cc1)c1cc2ccccc2o1	13	-1	-4.7	-22	4%
O=C(COC(=O)c1nc(-c2ccccc2)n(-c2cccc(C(F)(F)F)c2)n1)NCc1cccs1	15	-4	6.9	-17	4%
COC(=O)c1c(SCC(=O)Nc2ccc(C)cc2)nc(=O)[nH]c1C	-2	1	1.2	x	3%
COc1c(C)cc(C(=O)C2CCCN(C(=O)c3cc(C)on3)C2)cc1C (stereo not given)	9	x	-0.2	x	x
COC(=O)c1ccc(N2C(=O)CC(NCc3ccccc3)C2=O)cc1 (stereo not given)	-3	-3	0.2	-24	-4%
O=C(CSc1ccc(Br)cc1)N1CCOCC1	6	x	-1.3	x	x
Cc1cc(=O)[nH]c(N2CCOCC2)n1	8	6	0.8	x	-3%
COC(=O)Nc1c(C)nn(Cc2ccccc2C)c1C	x	2	-0.6	1	1%
CCn1c(NCc2ccccc2Cl)nc2ccccc21	-10	3	-0.1	-6	2%
COc1ccc(S(=O)(=O)N2Cc3ccccc3CC2C(=O)O)cc1OC (stereo not given)	7	10	3.1	-44	-5%	Arbovirus inh repeat=6
O=c1[nH]c(/C=C/c2ccccn2)nc2ccccc12	u	x	2.7	x	x
O=C(c1ccc(Br)c(S(=O)(=O)N2CCCCC2)c1)N1CCCCC1	-4	x	0.6	x	x
Cn1c(=O)c(=O)n(C)c2cc(S(=O)(=O)CCC(=O)Nc3ccc(C(F)(F)F)cc3)ccc21	-3	x	-1.5	x	x
CCNC(=S)Nc1ccc(Cc2nc3ccccc3[nH]2)cc1	-15	x	-5.6	x	x
C=CCC1NS(=O)(=O)OC(CCCC)C1O (stereo not given)	-6	x	-0.2	x	x
CCC(=O)Oc1ccc(/C(CC)=C(\CC)c2ccc(OC(=O)CC)cc2)cc1	4	-1	2.3	-47	12%
Cc1[nH]n(-c2cccc3ccccc23)c(=O)c1/C=N/NC(=O)c1cccc([N+](=O)[O-])c1	11	-14	10	-30	0%
CCc1nnc2sc(-c3cc(-c4ccccc4)nc4ccccc34)nn12	97	-3	0.7	-27	10%
O=C(Cn1ncc2ccccc21)N1CCC2(CC1)OCCO2	-3	4	-0.6	-22	-9%

By substructure, the entries above with bromine
SMILES	Mtb bLac sens	Arbovirus inh	RecA splice inh	YopH PTP inh	Mtb growth	others
O=C(CSc1ccc(Br)cc1)N1CCOCC1	6	x	-1.3	x	x
O=C(c1ccc(Br)c(S(=O)(=O)N2CCCCC2)c1)N1CCCCC1	-4	x	0.6	x	x

Additional compounds
SMILES	Mtb bLac sens	Arbovirus inh	RecA splice inh	YopH PTP inh	Mtb growth	others
C/C(=N/NC(=O)c1ccccn1)c1ccc(O)cc1	99	x	x	x	9%
O=C(NNS(=O)(=O)c1ccc2ccccc2c1)NC1CCCCC1	14	-2	-4.9	-23	13%
Cc1ccc(N(CCC#N)C(=O)COC(=O)C2CCN(S(=O)(=O)c3ccc4c(c3)OCCO4)CC2)cc1	-3	x	-1.5	x	x
CCN(CC)CC(=O)N1c2ccccc2Sc2ccccc21	-6	x	1.0	x	x
O=C(CN1CCCC1)Nc1ccccc1C(=O)c1ccccc1	-2	x	-0.2	x	-1%
CC1CC(C)CN(C(=O)COc2ccc(-c3nnco3)cc2)C1 (stereo not given)	-11	-2	-3.0	-10	-7%
Cc1ccc(-c2nnn(CC(=O)N(c3ccccc3F)C(C(=O)NC3CCCC3)c3ccco3)n2)o1 (stereo not given)	-1	11	0.5	-21	2%
COc1ccc(C2=NOC(C(=O)N3CCOCC3)C2)cc1OC (stereo not given)	4	1	1.2	-28	-1%
CN(C)C(=O)c1cc(Cl)ccc1Sc1cc(Cl)ccc1Cl	-2	-7	9.2	7	-3%
COc1ccccc1CNC1CCCc2ccccc21 (stereo not given)	7	x	-0.6	x	x
COc1ccc(N2C(=O)c3ccc(C(=O)OC(C)C)cc3C2=O)cc1	3	0	x	-27	-12%
Cc1cccc(-c2nc(CS(=O)CC(=O)N3CCc4ccccc4C3)c(C)o2)c1 (stereo not given)	0	0	3.4	-19	-9%	Arbovirus inh repeat=-6
CC(C)Sc1nnc(CNC(=O)C23CC4CC(CC(C4)C2)C3)n1Cc1ccccc1	2	-2	5.4	5	x
CSc1ccc(N2CCN(CCCNC(=O)Nc3ccccc3F)CC2)cc1	20	-16	1.3	-8	7%
CC1(C)Cc2c(C#N)c(NCc3ccco3)nc(-c3ccco3)c2CO1	16	4	-6.9	-19	-11%
CCOc1ccccc1N1CCN(C(=O)c2cc3cc(OC)ccc3[nH]2)CC1	2	x	4.3	x	x
COc1ccc(C2=NS(=O)(=O)N(C)C(C(=O)Nc3ccc(C(C)=O)cc3)=C2)cc1OC	8	x	0.4	x	x
O=C(CCCN1C(=O)c2ccccc2C1=O)Nc1ccc2c(c1)OCCO2	-9	0	0.8	x	-1%
CCOC(=O)C1(Cc2cccc(OC)c2)CCN(Cc2ccc(C)s2)CC1	1	1	6.6	x	6%
Clc1ccc(C[n+]2csc3ccccc32)cc1	-5	-7	x	-5	5%

Nothing new here: three of the compounds above.
SMILES	Mtb bLac sens	Arbovirus inh	RecA splice inh	YopH PTP inh	Mtb growth	others
C/C(=N/NC(=O)c1ccccn1)c1ccc(O)cc1	99	x	x	x	9%
O=C(NNS(=O)(=O)c1ccc2ccccc2c1)NC1CCCCC1	14	-2	-4.9	-23	13%
Cc1ccc(N(CCC#N)C(=O)COC(=O)C2CCN(S(=O)(=O)c3ccc4c(c3)OCCO4)CC2)cc1	-3	x	-1.5	x	x

Next section
SMILES	Mtb bLac sens	Arbovirus inh	RecA splice inh	YopH PTP inh	Mtb growth	others
COc1ccc(CCNCc2ccncc2)cc1	18	4	-0.3	12	-9%
Cc1nc2ccccn2c1/C(O)=C1\C(=O)C(=O)N(CCCN(C)C)C1c1ccc(F)cc1 (stereo not given)	-2	-5	x	-26	x	Arbovirus inh repeat=7
O=S(=O)(NN=C1CCCCCC1)c1ccccc1	7	x	-31	x	x
Cc1[nH]c(C)c(S(=O)(=O)N(Cc2ccccc2)C(C)(C)C)c1C(=O)N1CCCC1	9	x	-2.4	x	x
C=C/C(C)=C/CC1C(=C)CCC2C(C)(C(=O)O)CCCC12C (stereo not given)	-6	x	6.9	x	-8%
C/C(NC(=O)c1cccc(F)c1)=C1/C(=O)C[C@@H]2[C@H]1C2(C)C	16	8	-0.1	-7	11%
CC(=O)NC(c1ccc([N+](=O)[O-])cc1)c1c(O)ccc2ccccc12 (stereo not given)	1	13	-1.5	x	11%
Cc1nn(CC(=O)NCCCN2CC(C)CC(C)C2)c(=O)c2cccn12 (stereo not given)	-1	x	2.2	x	x
CCOC(=O)c1c(N)sc(C(=O)Nc2ccc3c(c2)OCO3)c1C	5	-22	0.7	-7	-2%
CC1Cc2ccccc2N1C(=O)CO/N=C/c1ccccc1OC(F)F (stereo not given)	-2	0	2.1	-15	6%
Cn1cnc2c(N3CCCCC3)nccc21	-1	4	3.0	-51	4%
COC(=O)c1cc(S(=O)(=O)N2CCCC2=O)c(Cl)cc1Cl	-2	x	0.8	x	x
O=Cc1sc(N2CCOCC2)nc1-c1ccccc1	-7	-2	-2.5	x	-4%
CCC(C(=O)NCc1ccc(OC)cc1)n1nc(C)n2c(cc3occc32)c1=O (stereo not given)	-6	-13	-2.3	-2	3%
CC(NC(=O)Cc1ccc(NC2=NC3CS(=O)(=O)CC3S2)cc1)c1ccccc1 (stereo not given)	-5	x	0.4	x	x
CC(C1CC2CCC1C2)n1c(COc2ccccc2F)nnc1SCC(N)=O (stereo not given)	-2	-9	-0.9	-38	-5%
O=C(N/N=C/c1cn(-c2ccccc2)nc1-c1cccnc1)c1ccc(F)cc1	2	-6	2.0	x	4%
Fc1ccc(/C=N/Nc2nn[nH]n2)cc1	1	24	-5.7	x	-4%
CC(=O)c1c(-c2ccc(C)cc2)nc2c3ccccc3ccn12	7	1	4.9	x	4%
CC(C)=CC(=O)N1CCC(N2CCC(C(=O)N3CCOCC3)CC2)CC1	-7	6	-2.0	x	5%
CC(=O)N1c2ccccc2-c2nc3ccccc3n2C1C (stereo not given)	3	x	-1.0	x	x
COc1ccc(N(CC(=O)NCC2CCCO2)S(=O)(=O)c2ccc(C)cc2)cc1OC (stereo not given)	-22	2	-0.9	-15	-5%
COc1ccc(NS(=O)(=O)c2cccc(NC(=O)C34CCC(CC3)C4)c2)cc1	-5	3	1.4	-27	11%
c1ccc(-n2c(-c3ccco3)nnc2N2CCOCC2)cc1	-6	3	-1.4	-24	1%
CNC(=O)/C(C#N)=C/c1ccc(-c2nc3ccccc3s2)o1	2	x	x	x	6%
COc1ccc(C2N3CC(C)(C)CN23)cc1 (stereo not given)	5	1	0.9	-23	-4%
CCN1CCCC1CNC(=O)c1csc2c1CCCC2 (stereo not given)	0	2	0.6	-29	-9%
O=C(Nc1nnc(-c2cccs2)o1)c1cccc(Oc2ccccc2)c1	97	3	x	-37	<0.2µM*	Arbovirus inh repeat=-13
CCOC(=O)C1(Cc2cccc(Cl)c2)CCCN(C(=O)c2ccc(COC)s2)C1 (stereo not given)	-2	x	0.2	x	x
CC(=O)Nc1ccc(OCCC[n+]2ccccc2)cc1	3	-1	0.1	x	-3%
COc1nccnc1NS(=O)(=O)c1ccc(NC(=S)NC(=O)/C=C/c2ccc(F)cc2)cc1	-4	2	0.9	-42	-2%
CCOCCCn1c(=S)[nH]c2cc(C(=O)NC3CCCCC3C)ccc2c1=O (stereo not given)	2	x	-2.1	x	x
O=C(CN1CCOCC1)Nc1cccc(Cl)c1Cl	-12	3	-1.7	13	-10%
CC1CN(C(=O)N2c3ccccc3Sc3ccccc32)C(C)CC1=O (stereo not given)	3	-2	7.3	-32	-16%

Screens deposited in PubChem by several laboratories.

Some of the compounds tested; count on the stated rates, not on these rows.
